Screening data (PubChem BioAssay)
KCNQ2 inh – KCNQ2 potassium channel inhibitors, primary screen, cell-based, CHO-K1, FluxOR thallium flux, B-score (AID 2156); 20 min; active compounds read low; only compounds with negative scores are shown here; some inactives read as strong as hits; B-score at 10 µM; 310,000 compounds, 1.1% hits;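 active = fluorescence ratio B-score at most minus 3 library SDs, with starting brightness B-score within 2 library SDs, cut at about -5.5 in these data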
Target sequence (O88943 whole entry, looked up): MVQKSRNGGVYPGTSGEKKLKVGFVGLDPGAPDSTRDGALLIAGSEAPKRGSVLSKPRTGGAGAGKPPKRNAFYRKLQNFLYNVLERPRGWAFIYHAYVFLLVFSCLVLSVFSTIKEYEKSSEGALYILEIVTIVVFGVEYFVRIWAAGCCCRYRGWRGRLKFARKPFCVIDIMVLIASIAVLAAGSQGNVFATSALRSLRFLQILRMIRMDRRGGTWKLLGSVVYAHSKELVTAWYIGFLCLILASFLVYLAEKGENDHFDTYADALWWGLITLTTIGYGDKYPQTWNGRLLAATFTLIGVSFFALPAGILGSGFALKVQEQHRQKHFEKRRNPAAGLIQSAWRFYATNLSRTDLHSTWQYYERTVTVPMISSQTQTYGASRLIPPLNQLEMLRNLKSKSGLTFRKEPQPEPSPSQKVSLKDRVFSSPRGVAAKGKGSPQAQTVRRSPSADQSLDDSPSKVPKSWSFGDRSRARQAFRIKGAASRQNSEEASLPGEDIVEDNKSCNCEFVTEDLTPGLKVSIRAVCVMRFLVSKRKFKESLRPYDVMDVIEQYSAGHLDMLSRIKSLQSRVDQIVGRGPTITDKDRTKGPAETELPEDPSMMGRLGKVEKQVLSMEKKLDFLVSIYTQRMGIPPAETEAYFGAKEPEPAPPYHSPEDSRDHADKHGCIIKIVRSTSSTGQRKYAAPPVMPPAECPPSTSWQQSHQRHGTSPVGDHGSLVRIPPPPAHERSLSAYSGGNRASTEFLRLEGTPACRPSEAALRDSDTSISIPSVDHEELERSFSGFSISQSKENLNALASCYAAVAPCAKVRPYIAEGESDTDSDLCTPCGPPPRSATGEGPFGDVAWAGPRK
KCNQ2 inh baseline – further read-out of KCNQ2 inh, marked with its call; B-score; measured here: initial fluorescence intensity artifact check;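 brightness before thallium and not channel activity; 0 = typical well and far values either way flag optical interference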
The depositor's hits bear a star; i = inactive. The list is partial. The share of hits here may be higher or lower than overall.

Start of the listing, in advance:
SMILES	KCNQ2 inh	KCNQ2 inh baseline
O=C(N=C1SC2CS(=O)(=O)CC2N1c1ccc(F)c(Cl)c1)C1CC1 (configuration not stated)	i	-3.3
CCOC(=O)C1CCCN(C(=O)c2cc3c(-c4cccc(OC)c4)nn(C)c3s2)C1 (configuration not stated)	i	-1.8
CCc1ccc(C(=O)NC(C(=O)NCC2CCCO2)C(C)C)cc1 (configuration not stated)	i	-0.61
CC(=O)NC(=S)Nc1ccc(NC(=O)COc2ccc(Cl)cc2)cc1	i	0.19
Cc1cc(C)n(CCN(C)C(=O)CCc2nnc(-c3ccc4c(c3)OCO4)o2)n1	i	0.96
O=C(CCCNC(=O)/C(=C\c1ccc(F)cc1)NC(=O)c1ccccc1)OCc1ccccc1	i	-0.05
Cc1ccc(Cl)cc1NS(=O)(=O)Cc1ccccc1	i	0.57

The whole of this part (from the top)
SMILES	KCNQ2 inh	KCNQ2 inh baseline
O=C(N=C1SC2CS(=O)(=O)CC2N1c1ccc(F)c(Cl)c1)C1CC1 (configuration not stated)	i	-3.3
CCOC(=O)C1CCCN(C(=O)c2cc3c(-c4cccc(OC)c4)nn(C)c3s2)C1 (configuration not stated)	i	-1.8
CCc1ccc(C(=O)NC(C(=O)NCC2CCCO2)C(C)C)cc1 (configuration not stated)	i	-0.61
CC(=O)NC(=S)Nc1ccc(NC(=O)COc2ccc(Cl)cc2)cc1	i	0.19
Cc1cc(C)n(CCN(C)C(=O)CCc2nnc(-c3ccc4c(c3)OCO4)o2)n1	i	0.96
O=C(CCCNC(=O)/C(=C\c1ccc(F)cc1)NC(=O)c1ccccc1)OCc1ccccc1	i	-0.05
Cc1ccc(Cl)cc1NS(=O)(=O)Cc1ccccc1	i	0.57
COc1cc(OC)c(C(=O)Nc2cccnc2)cc1OC	i	0.52
O=[N+]([O-])c1ccc2nc(CCCc3nc4ccc([N+](=O)[O-])cc4[nH]3)[nH]c2c1	i	-0.61
Cc1ccc(C(O)P(=O)(OCCC(C)C)c2ccc(N(C)C)cc2)cc1 (configuration not stated)	i	-0.16
Cc1oc(-c2ccc(F)cc2)nc1CN1CCCC(C(=O)N2CCOCC2)C1 (configuration not stated)	i	3.1
COc1ccc(C(=O)CCC(=O)Nc2ccc(Cl)cc2)cc1	i	-1
Cc1cc([N+](=O)[O-])nn1CC(=O)NCCc1c[nH]c2ccccc12	i	0.11
CCn1c(NC(=O)c2ccc(F)cc2)c2ccccc2nc1=O	i	1.6
Cc1ccc2c(c1)C1(OCCCO1)C(=O)N2CC#N	i	0.65
COc1cccc(N=CC2=C(O)CC(C)(C)CC2=O)c1	i	0.28
COc1ccc(C)cc1NC(=O)c1cc(S(=O)(=O)N2CCOCC2)cn1C	i	-1.3
COc1ccc(NC(=O)c2ccc(NC(=O)CCS(=O)(=O)c3cccs3)cc2)cc1	i	-0.97
O=c1cc(N2CCCCCC2)[nH]c(=O)n1-c1ccccc1Cl	i	0.82
Cc1cccc(N2CN(Cc3ccco3)CNC2=S)c1	i	0.03
NNC(=O)c1cc(-c2ccc(N)cc2)nc2ccc(Br)cc12	i	-0.73
COC(=O)c1nn(-c2ccccc2)c(-c2ccccc2)c1C(=O)c1ccccc1	i	-0.26
OCc1cn(-c2ccccc2)nc1-c1cc2ccccc2o1	i	0.62
Cc1ccccc1NC(=O)c1nnn(-c2ccc3c(c2)OCCO3)c1N	i	-0.37
Cc1cc[n+](-c2[nH]c(=O)sc2/C=N/N=C(\[O-])c2ccccc2)cc1	i	1.1
COc1ccc(Nc2ccncc2[N+](=O)[O-])cc1	i	-0.18
COCCNC(=O)COc1ccc(C)cc1C(=O)c1cc(C#N)c(=O)n(C2CC2)c1	i	-0.04
O=C(NCCN1C(=O)S/C(=C\c2cccnc2)C1=O)c1ccc(S(=O)(=O)N2CCCC2)cc1	i	-0.02
CCOc1ccc(NC(=O)Nc2nc(SCC)ns2)cc1	i	-0.21
Cc1ccc2nc(C)c3c(c2c1)N(c1ccc(F)cc1)CC3	i	-0.08
CCC1Cc2c(nc(N)c3c(N)nc(N4CCOCC4)c(C#N)c23)O1 (configuration not stated)	i	-0.55
CC(C)c1ccc(S(=O)(=O)N2CCN(CCC(=O)Nc3ccc(N(C)C)cc3)CC2)cc1	i	-0.25
CCc1ccc(NC(=O)CNCc2ccc(OC)c(OC)c2)cc1	i	-0.57
CC[C@@H](C)[C@H](NC(=O)OC(C)(C)C)c1nnc(S(=O)(=O)Cc2cc(C)ccc2C)o1	i	-0.86
CCOc1cc(C2C(C#N)=C(N)Oc3n[nH]c(-c4ccncc4)c32)cc([N+](=O)[O-])c1O (configuration not stated)	i	0.96
COc1cc(/C=N/N2CCN(c3ccccc3OC)CC2)ccc1OC(C)=O	i	0.04
O=C(O)CCCCn1c(SCc2ccccc2Cl)nc2ccsc2c1=O	i	-1.4
COc1ccc(OCCNC(=O)Nc2cc(F)c(F)cc2Cl)cc1	i	-1.7
COc1cc(NC(=O)CN2CCN(c3ccccc3O)CC2)c(C)cc1[N+](=O)[O-]	i	-0.37
O=C(Nc1ccc(S(=O)(=O)N2CCCC2)cc1)C1CC(=O)N(c2ccccc2)C1 (configuration not stated)	i	-1.1
Cc1nn(C)c(C(=O)Sc2ccccc2)c1[N+](=O)[O-]	-7.9*	0.3*
CCCCCC(=O)Nc1cc(S(=O)(=O)N2CCOCC2)ccc1N1CCCC1	i	-0.38
CCOC(=O)CC1C(C(=O)OCC)ON2OC(C(=O)OC)C(C(=O)OCC)C12 (configuration not stated)	i	1.7
COC(=O)[C@H](Cc1ccccc1)NC(=O)N(C)Cc1ccccc1	i	-0.06
O=C(c1ccc(Br)cc1)N1CCCC1	i	-0.84
O=c1[nH]c2ccccc2n1CCCSCCCn1c(=O)[nH]c2ccccc21	i	0.14
O=C(c1cccc(OC2CCN(Cc3cc(F)cc(F)c3)CC2)c1)N1CCCC1	i	-1.2
O=C(Nc1ccccc1Cc1ccccc1)c1ccccc1F	i	-0.01
O=c1[nH]c(C2CCN(S(=O)(=O)Cc3ccccc3)CC2)nc2c1nnn2Cc1ccccc1	i	0.12
NNc1nc2c(Cl)cccc2s1	i	0.01
(more compounds)
SMILES	KCNQ2 inh	KCNQ2 inh baseline
Nc1ncnc2nc(N3CCN(C(=O)c4ccccc4)CC3)[nH]c12	i	-0.51
CCc1ccc(C2CC(c3ccccc3)Nc3nc(N)nn32)cc1 (configuration not stated)	i	1.4
CN1CCN(/N=C/c2nc(-c3ccccc3)n3ccccc23)CC1	i	1.3
COc1ccc(Cl)cc1C(=O)Nc1nc2ccccc2[nH]1	i	0.19
C=CCN1C(=O)C2(NC(=O)c3ccccc3N2)c2ccccc21 (configuration not stated)	i	0.9
COCc1cc(C)nc2sc(C(=O)OC)c(N)c12	i	0.34
COc1cccc2c(=O)n(CC(=O)N3CCC(C)CC3)ccc12	i	-0.72
CNC(=O)c1[nH]nc2c1CCc1ccccc1-2	i	0.84
Cc1cc(C)n(CCO)c(=O)n1	i	2.1
Cc1cc(F)ccc1S(=O)(=O)Nc1ccccc1C(=O)Nc1ccccc1N1CCOCC1	i	-0.09
C=CCNC(=S)N1CCN(CCN=CC2=C(O)CC(c3cccs3)CC2=O)CC1 (configuration not stated)	i	0.62
N#Cc1cnc2c(-c3ccccc3)c(-c3ccccc3)nn2c1N	i	-0.12
CSCCC(NS(=O)(=O)c1ccc2c(c1)oc(=O)n2C)C(=O)NC1CCN(Cc2ccccc2)CC1 (configuration not stated)	i	0.59
O=C(N/C(=C/c1ccc(Cl)cc1)c1nc2ccccc2[nH]1)c1ccco1	i	0.53
CC(C)CC(=O)Nc1ccc(OCC(=O)O)cc1	i	-0.81
COc1ccc(OC)c(CNC(=O)CCC(=O)N2Cc3cccc(OC)c3Oc3ncccc32)c1	i	-0.24
CC(C)(C)[C@@H]1C=C(C(=O)N2CCN(Cc3ccccc3)CC2)O[C@H](OCc2ccc(CO)cc2)C1	i	-0.87
COc1ccc(-n2c(SCc3ccccn3)nc3c(c2=O)SCC3)cc1OC	i	1.4
CCOC(=O)CSC1=NC(=O)/C(=C\c2ccc(OC(C)=O)cc2)S1	i	2.3
COCCN(C(=O)c1csnn1)C(C(=O)NC1CCCCC1)c1ccc(Cl)cc1 (configuration not stated)	i	0.12
O=C(N/N=C/c1cn(Cc2ccccc2)c2ccccc12)c1cccnc1	i	-1.2
CCCc1nc(SCC(=O)NNC(=O)C2CCCCC2)c2ccccc2n1	i	4.5
CC1(C)Cc2c(sc3nc(C4CCCCC4)n(N)c(=O)c23)CO1	i	-0.57
COC(=O)c1sc(NC(=O)COc2ccccc2OC)nc1C	i	-0.01
O=C(O/N=C/C1=C(Cl)c2ccccc2CC1)c1ccc(F)cc1	i	2.2
CNS(=O)(=O)c1cc(N(C)S(=O)(=O)c2ccc(C)cc2)c(C)cc1C	i	0.34
COc1ccc(S(=O)(=O)N(C)C)cc1NC(=O)CSc1nncs1	i	0.84
COc1cccc(Nc2nc(-c3sc(NC(=O)c4ccco4)nc3C)cs2)c1	i	2.4
Cc1cccc(NC(=O)c2cc(Cl)sc2Cl)c1C	i	-0.23
COc1cc2c(cc1OC)CN(C(=O)c1ccc(S(=O)(=O)N3CCCC3)cc1)CC2	i	-0.02

2 entries from above, field by field:
> CCCc1nc(SCC(=O)NNC(=O)C2CCCCC2)c2ccccc2n1
  KCNQ2 inh: i
  KCNQ2 inh baseline: 4.5
> CC1(C)Cc2c(sc3nc(C4CCCCC4)n(N)c(=O)c23)CO1
  KCNQ2 inh: i
  KCNQ2 inh baseline: -0.57

Back to the main list with the 2 entries that preceded the break.
SMILES	KCNQ2 inh	KCNQ2 inh baseline
Cc1cccc(NC(=O)c2cc(Cl)sc2Cl)c1C	i	-0.23
COc1cc2c(cc1OC)CN(C(=O)c1ccc(S(=O)(=O)N3CCCC3)cc1)CC2	i	-0.02
CCOCCCNC(=O)C(NC(=O)c1ccc2c(c1)OCO2)c1ccc(OC)cc1 (configuration not stated)	i	0.03
CCCCCOC(=O)C(C)Sc1n[nH]c(=O)[nH]c1=O (configuration not stated)	i	0.57
CCCCn1c(N)c(N(CC(C)C)C(=O)c2cc(=O)[nH]c3ccccc23)c(=O)[nH]c1=O	i	1.2
O=C(Cn1[nH]c(=O)c2ccccc2c1=O)NC1CCN(Cc2ccccc2)CC1	i	0.03
Oc1ccccc1N1CCN(c2nnnn2-c2ccccc2)CC1	i	0.43
COc1ccc(/C=N/Nc2nnc(-c3ccccc3)c(=O)[nH]2)cc1	i	-1.3
CCCNC(=O)c1ccc(N2CCC3(CC2)CC(c2cccc(Br)c2)=NO3)c(NC(=O)c2ccco2)c1	i	-1.2
CN(/N=C/c1cccnc1)C1=NS(=O)(=O)c2ccccc21	i	2.2
CCC(=O)Nc1nc2nc(-c3ccccc3)cc(=O)n2[nH]1	i	-2.1
O=C(CN1CCN(S(=O)(=O)c2ccc(Br)cc2)CC1)Nc1ccccc1C(=O)c1ccccc1	i	-0.16
COc1cc(C(=O)NC(C)Cc2cccs2)cc(OC)c1OC (configuration not stated)	i	-0.42
O=C(OC(C(=O)Nc1ccc(Cl)cc1C(F)(F)F)c1ccccc1)c1c(Cl)cccc1Cl (configuration not stated)	i	1.2
CC(=O)Nc1ccc(/C(C)=N/NS(=O)(=O)c2ccc(C)cc2)cc1	i	0.76
Cc1cc(C)cc(C(=O)Nn2cnnc2)c1	i	0.96
CC(C)c1nc(N2CCOCC2)c(C#N)c2c1COC(C)(C)C2	i	-2.5
CCOC(=O)N1CCN(C(=O)c2ccc(NC(C)=O)cc2)CC1	i	0.73
O=C(CN1CCN(C(=S)NC2CCCC2)CC1)Nc1ccc(Oc2ccccc2)cc1	i	0.62
CCC(=O)Nc1ccccc1C(=O)N1CCCC1	i	-1.2
CCn1c(=O)n(CC)c2cc(N3CCCC3)c(NC(=O)c3c(F)cccc3F)cc21	i	-0.03
CC(C)CCOC(=O)C(C)Sc1n[nH]c(=O)[nH]c1=O (configuration not stated)	i	-0.94
COC(=O)c1c(NC(=O)COC(=O)C2CCC2)sc(C)c1C	i	-1.4
COc1ccccc1NC(=O)c1c(NC(=O)c2ccco2)sc2c1CCC2	i	0.29
Cc1ccc(SCC(=O)c2c(C)[nH]c3ccccc23)cc1	i	-1.6
COc1ccccc1Nc1ncc(-c2cccs2)s1	i	-0.87
O=C(COc1ccc([N+](=O)[O-])cc1)NCC(c1cccs1)N1CCOCC1 (configuration not stated)	i	-0.32
O=C(Cc1ccccc1)c1c[nH]c(C(=O)NCCCn2ccnc2)c1	i	1.2
CC(=O)N1c2ccccc2NC2=C(C(=O)CCC2)C1c1cccnc1 (configuration not stated)	i	0.18
Cc1ccc(NC(=O)N2CCC(c3nc4c(nnn4Cc4c(F)cccc4Cl)c(=O)[nH]3)CC2)cc1	i	0.81
Cc1ccc(N(CC(=O)NCCc2ccc(Cl)cc2)S(=O)(=O)c2c(C)noc2C)cc1	i	0.02
COc1ccccc1NS(=O)(=O)c1ccc2c(c1)OCCO2	i	1.4
Cc1ccc(C2=CSC3=NS(=O)(=O)CCN23)cc1	i	-1.3
O=C(N/N=C/c1cc(Cl)cc([N+](=O)[O-])c1O)c1ccccc1NS(=O)(=O)c1cccs1	i	-0.79
CCN(Cc1ccccc1)C(=O)CN1C(=O)COc2ccc(S(=O)(=O)NC3CCCC3)cc21	i	1.4
O=C(c1cc(Cl)ccc1Cl)N1CCOCC1	i	0.03
O=C(Cc1ccc(-c2ccccc2)cc1)Nc1ncccc1O	i	2
CC(=O)CCn1cnc([N+](=O)[O-])n1	i	-1.3
CC1=C(C)CC(C(=O)NNC(=O)c2csc3c2CCC(C(C)(C)C)C3)C(C(=O)O)C1 (configuration not stated)	i	-1.4
CCCNC(=O)c1ccc2c(c1)nc(C)n2-c1cccc(C)c1	i	-1.6
CCN(CC)S(=O)(=O)c1ccc(NC=C(C#N)C#N)cc1	i	2.2
O=C(CNC(c1ccccc1)c1ccccc1)Nc1ccccc1Br	i	-0.98
CCOC(=O)Cn1c(CN(Cc2ccccc2)Cc2ccccc2)nc2c1c(=O)n(C)c(=O)n2C	i	0.53
